Source: PubChem
Autofluor counter = counter-screen for toxin protease inhibitors: compound fluorescence. compound autofluorescence counterscreen, microsphere flow cytometry; hits give high values. fluorescence intensity (test concentration not listed). hit rate 3.1% among 360,000. AID 624483;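 active means at least 3 SD above the mean of all compounds, about 16000 in these data; inconclusive means too few beads counted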;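 further: 100 nL of 1 mM stock went into each well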
Mtb hypoxia inh = reduces hypoxia-regulated biosensor signal in M. tuberculosis | M. tuberculosis hypoxia-regulated fluorescent reporter, fluorescence | fluorescence inhibition, % (no concentration beside the values) | hit rate 0.1% among 300,000 | AID 1159583;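 active means 35 to 45% if threefold the growth effect, above 45% if 1.5-fold the growth effect; inactive means the rest, general growth blockers included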;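 further: wells of about 50 µL received 100 nL stock; 0% = vehicle wells and 100% = reference inhibitor wells; whole bacteria with a GFP reporter of the hypoxia response; strong numbers were not always called active; many hits fall short of the cut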
Sa RN4220 lethal = S. aureus RN4220 growth inhibition; OD600, 16 h; inhibition, % (concentration not given with the values); hit rate 0.33% among 330,000; AID 1259311;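 active means z-score of -3 or lower and OD600 up to 0.18 on both plates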;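 further: plate controls were untreated cells for no effect and reference antibiotic for full effect; stock transfer was 100 nL into about 80 µL; one replicate is shown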
BJeLR viability = BJeLR cell viability loss. BJeLR (HRASV12) viability, CellTiter-Glo ATP luminescence, 48 h; reference of the scale not given here. inhibition, % (concentration not given with the values). hit rate 0.17% among 300,000. AID 1554;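 active means replicate mean above 50%; inconclusive means above 50% but judged a plate artefact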;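 further: 50 nL library stock added to about 25 µL; numbers are from one replicate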
PrP UTR inh = suppresses PrP 5' UTR mRNA reporter expression | cell-based PrP 5' UTR mRNA reporter, plate reader | inhibition, % (test concentration not listed) | hit rate 0.35% among 340,000;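 active means every replicate at 50% or more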;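 further: 0 = median of the neutral control wells; tested in H4 reporter cells; numbers are from one replicate; inactives centre near -14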
ugtP null kill = compounds lethal to S. aureus RN4220 ugtP deletion mutant; OD600 growth, 16 h; some inactives read as strong as hits; growth inhibition, % (test concentration not listed); hit rate 0.54% among 330,000; AID 1259309;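 active means z-score under -3 and OD600 up to 0.15 on both plates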;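 further: plate controls were untreated wells for no effect and antibiotic for full effect; wells of about 80 µL received 100 nL stock; the first replicate is given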
Mtb hypoxia inh growth = also measured in Mtb hypoxia inh; calls as there; growth inhibition, %; measured here: M. tuberculosis growth (absorbance);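 0% = vehicle and 100% = reference antibiotic; read after six days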
* marks the source's active call; other numbers are inactive results; ? = inconclusive; . = not tested or not shown.

Molecule,Autofluor counter,Mtb hypoxia inh,Mtb hypoxia inh growth,Sa RN4220 lethal,BJeLR viability,PrP UTR inh,ugtP null kill
O=C(NCc1ccc2c(c1)OCO2)C1Cc2ccccc2CN1C(=O)c1ccco1 (configuration not stated),4668,2,1,-3.7,1,-1,-1
CCN(CC)c1ccc2c(C)c(Cl)c(=O)oc2c1,3330,0,8,12,0,-5,1
CCCCNc1c(N)n(CCC)c(=O)[nH]c1=O,4632,20,0,6.5,11,-15,9
CCOC(=O)C1C(c2ccc3c(c2)OCO3)NC(=O)NC1(O)C(F)(F)F (configuration not stated),2779,.,.,-0.5,-1,2,-2
CCCCC(=O)Nc1nnc(CCOC)s1,2002,0,7,6.8,-5,-7,9
COc1ccccc1C=NN=C(N)N[N+](=O)[O-],.,7,-2,2.1,.,.,0
Cn1c(SCC(=O)Nc2nccs2)nnc1-c1ccncc1,4898,.,.,1.4,-11,-17,3
CCOC(=O)c1c(C)n(C)c2ccc(OC)c(NC(=O)CN3CCCCC3)c12,3676,-77,-4,4.0,2,-18,1
Cc1ccc(N2C(=O)C(Cl)=C(N3CCOCC3)C2=O)cc1Cl,2089,10,11,5.1,3,-65,-4
CC(C)C[C@@H](NC(=O)[C@H]1CCCN1C(=O)Cc1ccccc1)C(N)=O,3489,-7,3,-0.6,0,-11,2
O=C(Cn1cnc2ccccc2c1=O)c1ccccc1,10007,0,3,3.3,-8,-14,1
COc1cc(NC(=O)c2cccs2)c(C(=O)OCC(=O)NC(=O)NC(C)(C)C)cc1OC,2779,.,.,7.6,6,-3,-8
N#CC[C@H](Cc1ccccc1)N1CC[C@@H](NC(=O)OCc2ccccc2)CCC1=O,3832,.,.,.,-9,-17,.
COC(=O)c1ccc(-n2cncn2)c(F)c1,23526*,4,1,4.7,-7,-12,12
Cc1nc2cccc(C(=O)NC3CCCCC3)c2o1,5165,.,.,-2.3,-5,-10,4
Cc1cccc(CSc2cccc3cccnc23)c1,10237,-69,-15,14,10,-19,42
FC(F)(F)c1cccc(OCc2nnc3n2CCC3)c1,4325,9,-4,-0.3,-5,-26,0
COCCNC(=O)C1Nc2ccc(OC(F)(F)F)cc2C2C=CCC12 (configuration not stated),3285,18,11,11,2,-20,-1
CCn1cc(C(=O)NCc2cccs2)c(=O)c2ccc(C)nc21,2165,.,.,-3.3,-12,-14,-5
CCCCSCc1ccc(C(=O)O)o1,20913*,-12,12,-3.4,-2,3,-8
COc1cc(-c2nn3c(-c4cccc(C)c4)nnc3s2)cc(OC)c1OC,14433,10,2,5.2,-6,4,8
CS/C(Nc1cc(Cl)ccc1Cl)=C(/C#N)C(=O)c1ccco1,3551,.,.,48,-10,-29,7
O=C(CSc1nc2ccccc2s1)N1c2ccccc2Sc2ccccc21,4271,11,6,-0.6,7,-2,18
O=C(Cc1ccccc1)NNC1CC(=O)N(c2ccc(Br)cc2)C1=O (configuration not stated),9661,4,-4,4.2,16,-13,0
CC(=O)NC(=O)COC(=O)c1ccc2ncsc2c1,4814,5,13,6.4,6,-14,12
Cc1c(Cl)cccc1NC(=O)c1cccc(OC(F)F)c1,9641,3,9,11,-6,-35,-4
COc1ccc(C2=Nn3c(nnc3-c3ccccc3OC)SC2)cc1OC,.,4,4,7.3,8,56*,0
COc1ccc(-c2cn3cccnc3n2)cc1NC(=O)CC(C)C,7719,9,5,4.1,-7,-14,7
O=C(N/N=C/c1ccccc1)NC1CCCCC1,2087,.,.,.,4,-36,.
COc1ccc(CN2CCN(S(=O)(=O)c3ccc(NC(C)=O)cc3)CC2)cc1,4726,0,5,3.2,2,-41,5
CN(Cc1ccccc1)C(=O)c1ccc(NC(=O)Cc2ccc(NC(=O)C3CCN(C(=O)c4ccccc4)CC3)cc2)cc1,3426,-1,2,4.7,.,5,0
COc1cccc2cc(C(=O)C3=C(O)C(=O)N(c4cc(C)on4)C3c3cccs3)oc12 (configuration not stated),4228,6,4,8.2,2,-11,-3
CC1CN(C(=O)c2ccc(Oc3ccccc3)cc2)CC(C)O1 (configuration not stated),4507,3,6,5.3,9,13,1
O=C1C2C(c3ccccc3)C=CC(c3ccccc3)C2C(=O)N1C1CCCCC1 (configuration not stated),2672,.,.,-4.6,-5,-12,-3
Cc1ccccc1C(=O)Nc1ccc(N2CCOCC2)nc1,9260,12,7,7.1,1,-54,-9
FC(F)(F)c1ccc(NC2=NCCCS2)cc1,3991,-14,1,2.2,-1,-35,-2
Cc1cc(N)n(Cc2cccs2)n1,4698,20,-1,0.1,-3,-15,3
CC(C)N(Cc1nc(-c2ccccc2)no1)C(=O)C(Cl)(Cl)Cl,4314,13,5,6.1,-4,-11,6
Cc1cnc(NC(=O)c2cc3c(C)nn(Cc4ccccc4Cl)c3s2)s1,2595,-8,1,4.6,-2,-25,-6
N#CCCn1c(-c2nonc2NC(=O)c2ccccc2Cl)nc2ccccc21,9411,7,1,2.2,-14,0,7
COc1ccc(C(CNC(=O)c2cc(S(=O)(=O)Nc3cccc(C)c3)ccc2C)N2CCCC2)cc1 (configuration not stated),?,0,7,6.4,.,-4,15
COc1ccc(OC)c2c1cc(C(=O)N[C@@H](C)C(=O)N[C@@H](C(=O)O)c1ccccc1)n2C,3324,9,8,-0.2,-4,-17,3
CN(CCC#N)C(=O)COc1ccc(Br)cc1Cl,4401,-3,6,4.1,-1,-17,3
CCCOc1ccccc1N/C(=N/c1nc(C)cc(C)n1)NC(=O)COc1ccc(OC)cc1,5024,.,.,0.6,5,-6,-16
Cc1ccc(C)c(Cn2nnc3c(=O)[nH]c(C(=O)NCc4ccco4)nc32)c1,22656*,1,8,5.2,0,-11,-14

5 consecutive compounds already listed, quoted:
Molecule,Autofluor counter,Mtb hypoxia inh,Mtb hypoxia inh growth,Sa RN4220 lethal,BJeLR viability,PrP UTR inh,ugtP null kill
COc1ccc(C(CNC(=O)c2cc(S(=O)(=O)Nc3cccc(C)c3)ccc2C)N2CCCC2)cc1 (configuration not stated),?,0,7,6.4,.,-4,15
COc1ccc(OC)c2c1cc(C(=O)N[C@@H](C)C(=O)N[C@@H](C(=O)O)c1ccccc1)n2C,3324,9,8,-0.2,-4,-17,3
CN(CCC#N)C(=O)COc1ccc(Br)cc1Cl,4401,-3,6,4.1,-1,-17,3
CCCOc1ccccc1N/C(=N/c1nc(C)cc(C)n1)NC(=O)COc1ccc(OC)cc1,5024,.,.,0.6,5,-6,-16
Cc1ccc(C)c(Cn2nnc3c(=O)[nH]c(C(=O)NCc4ccco4)nc32)c1,22656*,1,8,5.2,0,-11,-14

Next section.
Molecule,Autofluor counter,Mtb hypoxia inh,Mtb hypoxia inh growth,Sa RN4220 lethal,BJeLR viability,PrP UTR inh,ugtP null kill
CCOC(=O)CCCCCNC(=O)c1c(O)[nH]c(=O)[nH]c1=O,3532,23,6,7.8,-11,-23,12
O=C(CN(C(=O)CCC(=O)Nc1nccs1)c1cccc(F)c1)NCc1ccc(F)cc1,3631,2,1,-0.9,4,-12,0
CC(=O)OCCNc1cc(Sc2nc3ccccc3[nH]2)c2nonc2c1[N+](=O)[O-],1967,.,.,74,-3,12,70
Nc1cc(=O)[nH]c(SCc2ccc(Cl)cc2Cl)n1,3714,11,-2,1.0,7,-8,4
CCOc1ccc(CN(C)C(=O)CNC(=O)C2CCCCC2)cc1,2990,4,-5,-5.3,-4,9,11
O=C(O)Cn1cc(/C=C2\SC(=O)N(c3ccccc3)C2=O)c2ccccc21,4746,5,14,-1.3,3,-27,-5
COC(=O)C(C)n1cnc2c(nnn2-c2cccc(OC)c2)c1=O (configuration not stated),3409,-6,0,1.9,-6,5,-2
CCOc1ccc2c(c1)ncn2Cc1ccccc1,4682,11,9,2.8,-2,-34,11
CCC(=O)Nc1sc(C(=O)Nc2ccccc2)c(C)c1C(=O)OC,2451,2,0,10,1,-66,1
Cc1nnc2nc(-c3ccccc3)nc(-c3ccccc3)n12,3962,16,15,5.2,3,6,1
COc1cc(C(=O)NCC(c2ccco2)N2CCc3ccccc32)cc(OC)c1OC (configuration not stated),5638,4,2,-1.0,7,-6,6
CCN(CC)CCSc1nc2ccccc2c(=S)n1-c1ccccc1,.,-5,10,-2.9,1,.,26
COc1cc2c(cc1OC)C(COc1ccc3c(C)cc(=O)oc3c1)N(C(=O)c1ccco1)CC2 (configuration not stated),5175,-3,11,4.4,1,-8,-10
CCOCCCNC(=O)C(c1ccc(OC)cc1)N(Cc1cccs1)C(=O)c1ccccc1O (configuration not stated),3309,7,0,9.3,-11,-19,-3
Cc1cc(Cl)ccc1OCC(=O)Nc1ccccc1C(=O)N1CCOCC1,5963,13,4,1.5,-7,-14,3
CCOc1ccc(Cl)cc1/C=N/NC(=O)CNC(=O)c1ccccc1,9890,.,.,.,6,-8,.
O=C(Cn1cnc2cc(Cl)ccc2c1=O)Nc1ccc2c(c1)OCO2,3244,9,6,0.6,4,-15,-1
CCN(c1ccccc1)S(=O)(=O)c1ccc(Cl)c(NC(=O)CSc2nnc(C)s2)c1,3647,4,3,1.7,3,-25,-3
O=C1NC(=S)N/C1=C\c1ccc(N2CCOCC2)cc1,2397,.,.,.,-2,-17,.
COc1cccc(-c2noc(-c3cccs3)n2)c1,9095,-4,-5,4.7,3,-95,6
Cc1cc(C)nc(NC(=O)c2ccc(C)o2)n1,4360,8,-5,5.9,7,-25,16
c1cncc(-c2ccnc3ncnn23)c1,2617,4,2,5.3,2,-23,-2
Cc1ccc(NC(=O)COC(=O)Cc2c[nH]c3ccccc23)cc1F,5941,1,3,5.9,.,6,-3
CS(=O)(=O)Nc1ccc2c(c1)C(=O)OC2,10192,7,9,3.1,0,-18,-5
CCc1cccc(CC)c1NC(=S)NCc1ccc2c(c1)OCO2,2302,-18,-16,-6.9,-4,-23,8
Cc1ccc(CC(CC(=O)O)C(=O)NCC23CC4CC(CC(C4)C2)C3)cc1 (configuration not stated),5031,7,-5,15,2,-6,6
COc1ccc(Oc2cc(C(F)(F)F)nc(N(C)C)n2)cc1,4497,-5,-1,-3.7,-4,-12,50
COCCn1c(SCC(=O)Nc2cc(C)cc(C)c2)nc2ccccc2c1=O,2952,-3,-17,0.3,2,-26,-2
O=C(Nc1cccc(Cl)c1N1CCOCC1)c1ccco1,2927,0,-6,7.3,2,-1,-3
CCN(CC)CCn1c(N=Cc2cc(Br)ccc2O)nc2ccccc21,.,3,1,9.3,.,.,14
COc1ccccc1CN1CCNC(=O)C1CC(=O)NCCOc1cccnc1 (configuration not stated),2150,10,-1,4.2,0,-30,0

Outcome played no part in choosing rows. About 4.1% of those tested had a hit in this group.
